MgrA-DNA mod: alters Staphylococcus aureus MgrA binding to DNA. 84,000 tested, 0.13% active. fluorescence polarization. inhibition, %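 (about 10 µg/mL by stock and volumes)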. AID 602314;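 active = above 50% in either of two replicates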;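 note: 0% = protein plus DNA without compound and 100% = DNA alone without protein; higher means less MgrA bound to DNA so lower polarization; one replicate is shown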
S aureus helic: blocks Staphylococcus aureus DNA helicase. purified S. aureus helicase, fluorescence unwinding assay; about half of the hits fall short of the stated cut. 120,000 tested, 0.05% active. inhibition, %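 (tested at about 80 µM)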;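 active = both duplicates at 50% or more, or one of them with a favoured structure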;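 note: 0% = mean of negative control wells and 100% = mean of positive control wells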
* = called active by the depositor. These rows are one share of the data. The share of hits here may be higher or lower than overall.

CCOC(=O)Cn1cnc2sc(-c3ccccc3)cc2c1=O was read as MgrA-DNA mod 1.0.
Screening CCC(C)NS(=O)(=O)c1cccc2nsnc12 (stereo not drawn) returned S aureus helic 8.
`CN1N=C(c2coc3ccccc23)CC1(O)C(F)(F)F` (stereo not drawn) gave MgrA-DNA mod 0.6.
Screening Cc1ccc(N2CCN(/N=C3/C(=O)Nc4c(Cl)cc(Cl)cc43)CC2)cc1 returned S aureus helic -14.
Screening O=C(Nc1cccc(F)c1)/C(=C\c1cccs1)NC(=O)c1cccs1 returned MgrA-DNA mod -0.1 and S aureus helic 6.
For Cn1cccc1/C=N/NC(=O)c1cccc(S(=O)(=O)NCc2ccccc2)c1 the results were S aureus helic 5.
`CC(C)C(NS(=O)(=O)c1cccs1)C(=O)NCc1cccnc1` (stereo not drawn) gave S aureus helic 4.
For Cc1cccc(NC2=NCC(=O)N2Cc2ccccc2)c1 the results were MgrA-DNA mod -4.0 and S aureus helic 14.
`COc1nc(NC(=O)NS(=O)(=O)Nc2cccc3cccnc23)nc(OC)n1` gave MgrA-DNA mod 2.5.
Screening CCCCNC(=O)c1ccc(CS(=O)Cc2ccc(C)cc2)o1 (stereo not drawn) returned S aureus helic -4.
Screening CC(C(=O)N1CCCCCC1)n1sc2ccccc2c1=O (stereo not drawn) returned MgrA-DNA mod 0.9 and S aureus helic 11.
`BrC12CC3CC(C1)CC(Br)(C3)C2` gave MgrA-DNA mod 3.7.
For CCOc1ccc(S(=O)(=O)n2cnc3ccccc32)cc1 the results were MgrA-DNA mod 0.6 and S aureus helic -1.
Screening O=C(Cc1ccccc1)n1cnc2ccccc21 returned MgrA-DNA mod 3.7 and S aureus helic 5.
`O=C(NC1CC1)c1cc(=S)[nH]c2ccccc12` gave S aureus helic -8.
C=CCn1c(SCC(=O)N2CCOCC2)nc2sc3c(c2c1=O)CCC3 was read as MgrA-DNA mod -2.5.
`CCOC(=O)/C(N=O)=C(/O)c1ccccc1` gave MgrA-DNA mod -1.1.
Cc1cc(-c2onc(C)c2CO)no1 was read as MgrA-DNA mod 0.2.
For CC(=O)NS(=O)(=O)c1ccc(NC(=O)COc2ccc(Cl)cc2C)cc1 the results were MgrA-DNA mod -1.4 and S aureus helic 17.
`COc1cc(OC)nc(NC(=O)CS(=O)(=O)c2ccccc2)n1` gave MgrA-DNA mod 1.4 and S aureus helic 5.
Screening CCOC(=O)C1CCN(C(=O)c2cncc(-c3cccs3)c2)CC1 returned MgrA-DNA mod -1.4.
Screening Cc1ccc(NC(=O)CSc2nc3c(c(=O)n2-c2ccccc2)SCC3)cc1 returned S aureus helic 8.
CCCCC(=O)Nc1nnc(-c2ccc(Cl)s2)o1 was read as S aureus helic 5.
Screening Cc1cc(=O)oc2c1c(C(F)(F)F)nn2C returned MgrA-DNA mod -2.8.
Screening O=C(CN1C(=O)S/C(=C\c2ccc(N3CCOCC3)o2)C1=O)Nc1ccccc1F returned MgrA-DNA mod -5.3 and S aureus helic -78.
Screening COc1ccc(C=Nc2ccccc2C(=O)O)cc1 returned MgrA-DNA mod -3.2 and S aureus helic 13.
Screening O=C(O)C1CC=CCC1C(=O)Nc1ccccc1S (stereo not drawn) returned MgrA-DNA mod -0.6 and S aureus helic 9.
Screening O=C(NCCS(=O)(=O)N1CCCCC1)c1ccccc1 returned S aureus helic 9.
`O=C(/C=C/c1cccs1)NC(=S)N1CCCC1` gave S aureus helic -8.
N#C/C(=C/Nc1cccc2ccccc12)c1nc2ccccc2o1 was read as MgrA-DNA mod 0.8 and S aureus helic -5.
For CC1CCCN(CCCNS(=O)(=O)c2cc(Br)cc3c2N(C(=O)C2CC2)CC3)C1 (stereo not drawn) the results were S aureus helic 33.
For C=CCN1C(=O)/C(=C\c2cc3c4c(c2)CCCN4CCC3)C(=O)NC1=S the results were MgrA-DNA mod 8.6 and S aureus helic 3.
Screening Cc1ccc(S(=O)(=O)c2ccc(-c3ccccc3)cc2)cc1 returned MgrA-DNA mod 2.3 and S aureus helic -10.
`COc1ccc(CNC(=O)c2ccc3c(c2)C(=O)N(Cc2ccco2)C3=O)cc1` gave MgrA-DNA mod 11 and S aureus helic 9.
For COc1cc(/C=C2\SC(N(C)c3ccc(O)cc3)=NC2=O)ccc1OCC(=O)O the results were MgrA-DNA mod 1.6 and S aureus helic 9.
`Cc1cccc(CSc2nc3nc[nH]c3c(=O)[nH]2)c1` gave S aureus helic 16.
Screening CCN1C(=O)c2cccc3c(S(=O)(=O)Nc4nc(C)cs4)ccc1c23 returned S aureus helic -2.
O=C(CCN1C(=O)c2ccc([N+](=O)[O-])cc2C1=O)Nc1ccc(C(=O)O)cc1 was read as MgrA-DNA mod 2.4.
`CCOc1ccccc1C(=O)NC1CCS(=O)(=O)C1` (stereo not drawn) gave S aureus helic 0.
For Nc1n[nH]c(-c2ccc(Cl)cc2)c1Cl the results were MgrA-DNA mod -3.6 and S aureus helic 6.
`Cc1c(NC(=S)NC(C)(C)C)c(=O)n(-c2ccccc2)n1C` gave S aureus helic 0.
Screening NS(=O)(=O)c1ccc2[nH]c(=S)[nH]c2c1 returned S aureus helic 4.
For CCC(=O)NCCCc1nc2ccccc2n1CC the results were S aureus helic 9.
Screening N#CC(C(=O)NCc1cccs1)c1ccccc1 (stereo not drawn) returned MgrA-DNA mod -1.2 and S aureus helic 0.
For CSc1scc2c1/C(=N\O)CC(C)(C)C2 the results were MgrA-DNA mod -1.8.
O=C(CSc1ccc(C(F)(F)F)cn1)c1ccc(Cl)cc1 was read as MgrA-DNA mod -2.0.
Screening Cc1cc(C)nc(NS(=O)(=O)c2ccc(NC(=O)c3cc(Cl)cc(Cl)c3)cc2)n1 returned MgrA-DNA mod 2.2.
`Cc1nnc(SC(C)C(=O)NCc2ccco2)n1C1CCCCC1` (stereo not drawn) gave S aureus helic -19.
COc1cc(-n2cc(-c3ccccc3)n(CC(=O)Nc3ccccc3C)c2=O)cc(OC)c1OC was read as S aureus helic 17.
CN(CC(=O)NC1CC1)S(=O)(=O)c1ccccc1 was read as MgrA-DNA mod -0.2 and S aureus helic 7.
`CC(/C=C1\SC(=S)N(CCC(=O)Nc2ccccc2O)C1=O)=C\c1ccccc1` gave S aureus helic -32.
For O=S(=O)(c1ccccc1)N1CCCc2ccccc21 the results were MgrA-DNA mod 2.5 and S aureus helic 3.
Screening CC1(C)CC(=O)C(SC(F)(F)F)C(=O)C1 returned S aureus helic 0.
CSc1sc(C)cc1C(N)=O was read as MgrA-DNA mod 0.7 and S aureus helic -21.
Cc1ccc2c(c1)N(S(=O)(=O)c1c(C)[nH]c(=O)[nH]c1=O)CCO2 was read as S aureus helic 13.
For CCCC(=O)n1nc(CCC)c2c1CC(C)(C)CC2=O the results were MgrA-DNA mod 0.8 and S aureus helic 8.
Screening O=C(NCC(=O)N1CCCC1)c1ccc(Br)o1 returned MgrA-DNA mod -0.2 and S aureus helic -17.
For CC(NC(=O)c1ccc(CO)cc1)C(=O)O (stereo not drawn) the results were S aureus helic 11.
Screening CC(=O)[C@@]1(O)C(C)CC2C3CC[C@H]4CC(O)CCC4(C)C3[C@H](O)CC21C (stereo partly drawn) returned MgrA-DNA mod -1.9.
Screening COc1ccc(C2CC(=O)C3=C(C2)Nc2ccccc2NC3c2ccc(Cl)c([N+](=O)[O-])c2)cc1 (stereo not drawn) returned MgrA-DNA mod 5.2.

Copied from the listing, 2 compounds:
Screening Cc1cc(C)nc(NS(=O)(=O)c2ccc(NC(=O)c3cc(Cl)cc(Cl)c3)cc2)n1 returned MgrA-DNA mod 2.2.
`Cc1nnc(SC(C)C(=O)NCc2ccco2)n1C1CCCCC1` (stereo not drawn) gave S aureus helic -19.

Next section.
`CC(c1ccccc1)n1c(NC(=O)c2ccco2)c(S(=O)(=O)c2ccccc2)c2nc3ccccc3nc21` (stereo not drawn) gave S aureus helic 18.
`Nc1ccc2nn(-c3ccccc3)nc2c1` gave MgrA-DNA mod 0.0 and S aureus helic -5.
For Cc1cc(C)nc(SCc2cnc(C)nc2N)n1 the results were MgrA-DNA mod 3.8 and S aureus helic 13.
COC(=O)NCC(c1ccco1)N1CCN(c2ccccc2)CC1 (stereo not drawn) was read as S aureus helic 5.
COc1ccc(N2CCN(C(CNC(=O)c3cccc(Cl)c3)c3ccc4c(c3)OCO4)CC2)cc1 (stereo not drawn) was read as S aureus helic 5.
Screening Oc1ccc(CNC2CCCCC2)cc1 returned S aureus helic 11.
CSCCC(C(=O)O)n1c(-c2ccc3ccccc3n2)n[nH]c1=S (stereo not drawn) was read as S aureus helic -30.
CCCNC(=O)C1CCN(c2nnc(-n3c(C)ccc3C)s2)CC1 was read as S aureus helic 14.
Screening C=CCn1c(SCc2nc3ccccc3c(=O)n2CC#N)nc2ccc(Cl)cc2c1=O returned S aureus helic -15.
For O=C(CSc1nc(-c2ccccc2)c(-c2ccccc2)o1)N1CCOCC1 the results were S aureus helic -19.
For CN(C)c1ccc(C=Nc2ccc3c(c2)OCO3)cc1 the results were MgrA-DNA mod -0.9.
Screening CCN1CCCC1CNC(=O)Cn1nc(C)n2cccc2c1=O (stereo not drawn) returned S aureus helic 16.
COC(=O)CC(C(=O)Nc1cc(C(=O)OC)cc(C(=O)OC)c1)N1CCN(C)CC1 (stereo not drawn) was read as MgrA-DNA mod -2.4 and S aureus helic 17.
For Nc1nc(C23CC4CC(CC(C4)C2)C3)cs1 the results were S aureus helic 14.
C=CCSc1nnc(-c2ccncc2)o1 was read as S aureus helic -18.
For CC1CCCC(NC(=O)COC(=O)COc2ccccc2)C1C (stereo not drawn) the results were MgrA-DNA mod -3.5 and S aureus helic -21.
`COC(=O)c1[nH]c2c(c1C)C(=O)C(C(=O)OC)C(C)C2` (stereo not drawn) gave S aureus helic 7.
Screening O=S(=O)(NCc1ccc2c(c1)CCO2)c1ccc(F)c(F)c1 returned MgrA-DNA mod -2.1.
For O=C(O)c1ccccc1C(=O)Nc1ccccc1 the results were MgrA-DNA mod -1.0.
NC(=O)Cn1c(=O)n(-c2ccccc2)c(=O)c2oc3ccccc3c21 was read as S aureus helic -3.
CC(NC(=O)C1CCC(CNS(=O)(=O)c2cccc3nsnc23)CC1)c1ccccc1 (stereo not drawn) was read as S aureus helic 4.
For CCCn1c(SC)nnc1SC the results were MgrA-DNA mod -0.7.
`Cc1cc(-c2cc(C)[nH]n2)n[nH]1` gave MgrA-DNA mod -1.5 and S aureus helic 4.
`COC(=O)c1ccc(CS(=O)(=O)c2ccccc2OC)o1` gave S aureus helic 3.
For COc1ccc(-c2nn(-c3ccccc3)cc2CC#N)cc1OC the results were MgrA-DNA mod 0.0 and S aureus helic 12.
`COc1ccc(-c2cc3nc(C)c(CCC(=O)NCc4ccc5c(c4)OCO5)c(C)n3n2)c(OC)c1` gave MgrA-DNA mod -0.3 and S aureus helic 12.
`Nc1ccc2c(c1)Nc1ccccc1CC2` gave S aureus helic 2.
CN1C=C/C(=C\c2cc[n+](C)c3ccccc23)c2ccccc21 was read as MgrA-DNA mod 0.9 and S aureus helic 86*.
COC(=O)c1ccc(-c2ccc(/C=C3/C(=N)N4N=C(COc5ccccc5)SC4=NC3=O)o2)cc1 was read as S aureus helic -75.
Cc1ccccc1NC(=O)N1c2ccccc2CC1C (stereo not drawn) was read as MgrA-DNA mod 5.2 and S aureus helic 15.
For CN(C)CCOC(=O)c1ccc2c(c1)OCCO2 the results were S aureus helic 18.
CCOCCOC(=O)C1=C(C)NC(=O)NC1c1ccccc1OCc1ccccc1 (stereo not drawn) was read as MgrA-DNA mod -2.3.
`CC(C)(C)NC(=O)Cn1c(=O)oc2ccccc21` gave MgrA-DNA mod -2.2 and S aureus helic -5.
For Cc1ccc(N(C(=O)COc2c(C)cccc2C)S(=O)(=O)c2ccc(Cl)cc2)cc1 the results were MgrA-DNA mod -0.6 and S aureus helic 6.
`Cc1nn(-c2ccccc2)c(C)c1/C=C/C(=O)OCc1nc2ccsc2c(=O)[nH]1` gave S aureus helic 10.
For CCCCCCCCCCCCCCCCOC[C@H](COP(=O)([O-])OCC[N+](C)(C)C)OC(=O)NC the results were MgrA-DNA mod 5.0.

Arranged by count of non-hydrogen atoms (smallest number first): part of the list above
For CCCn1c(SC)nnc1SC the results were MgrA-DNA mod -0.7.
For CSc1scc2c1/C(=N\O)CC(C)(C)C2 the results were MgrA-DNA mod -1.8.
For CN(C)CCOC(=O)c1ccc2c(c1)OCCO2 the results were S aureus helic 18.
`COC(=O)c1[nH]c2c(c1C)C(=O)C(C(=O)OC)C(C)C2` (stereo not drawn) gave S aureus helic 7.
O=C(CSc1ccc(C(F)(F)F)cn1)c1ccc(Cl)cc1 was read as MgrA-DNA mod -2.0.
C=CCn1c(SCC(=O)N2CCOCC2)nc2sc3c(c2c1=O)CCC3 was read as MgrA-DNA mod -2.5.
For Cn1cccc1/C=N/NC(=O)c1cccc(S(=O)(=O)NCc2ccccc2)c1 the results were S aureus helic 5.

2 entries drawn at random from the list so far:
COC(=O)c1ccc(-c2ccc(/C=C3/C(=N)N4N=C(COc5ccccc5)SC4=NC3=O)o2)cc1 was read as S aureus helic -75.
For CN(C)CCOC(=O)c1ccc2c(c1)OCCO2 the results were S aureus helic 18.

(further entries)
For CCOC(=N)c1ccc(F)c(Cl)c1 the results were MgrA-DNA mod -3.4.
Screening CCOc1ccc(CCNC(=O)c2cc3c(C)nccc3[nH]c2=O)cc1OCC returned S aureus helic -8.
Screening CC(=O)Nc1cccc([N+](=O)[O-])c1 returned MgrA-DNA mod 2.0.
CCN1CCC(N(Cc2cccc(OC)c2)C(=O)Nc2ccc3c(c2)OCCO3)CC1 was read as S aureus helic 16.
`c1cc2c(cc1-c1ccc(SCCN3CCCCC3)nn1)OCO2` gave S aureus helic -2.
CCCCn1c(CCC(=O)O)ccc1-c1ccccc1 was read as S aureus helic 3.

In the list so far, these have bromine.
`BrC12CC3CC(C1)CC(Br)(C3)C2` gave MgrA-DNA mod 3.7.
For CC1CCCN(CCCNS(=O)(=O)c2cc(Br)cc3c2N(C(=O)C2CC2)CC3)C1 (stereo not drawn) the results were S aureus helic 33.
Screening O=C(NCC(=O)N1CCCC1)c1ccc(Br)o1 returned MgrA-DNA mod -0.2 and S aureus helic -17.
